Screening results as filed in PubChem BioAssay.
LANA-H2A inh = blockers of LANA interaction with H2A/H2B – biochemical, FP readout, HTS, primary screen; inhibition, % (concentration not given with the values); cell-free LANA-H2A/H2B peptide, fluorescence polarization; 320,000 compounds, 0.6% hits; in the data active = inhibition mostly above about 10%, no sharp cut-off; inactive = mostly below about 6.7%;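 note: stock transfer was 7.5 nL into about 10 µL; 0% = median of vehicle wells and 100% = median of positive control wells; one replicate is shown; the record names a cut of 25% in any replicate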
UCH37 DUB inh = inhibitors of human UCH37 deubiquitinase, primary screen, biochemical, Ub-AMC cleavage, fluorescence. Ubiquitin carboxyl-terminal hydrolase isozyme L5 (Homo sapiens), Q9Y5K5. purified proteasome/UCH37. inhibition, % (test concentration not listed). 330,000 compounds, 0.33% hits;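 active = mean of two replicates above 20%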;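 note: 0% = compound-free wells with enzyme and 100% = wells lacking proteasome; stock transfer was 100 nL into about 20 µL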
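assay system = human UCH37 enzyme supplied as purified proteasome complex | amount = proteasome at 0.15 nM in the dispensed enzyme solution | schedule = 30 min compound-proteasome preincubation then 25 min substrate reaction, room temperature | measured by = fluorescence, ex 355 nm, em 460 nm | benchmarks = no-proteasome wells (full inhibition) and compound-free wells (no inhibition)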
E coli growth = E. coli growth inhibition, primary screen, OD600. AID 1053175, 2014. Escherichia coli growth, 23 h; stronger effect = lower value. 330,000 compounds, 0.21% hits. OD600 absorbance (concentration not given with the values);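 active = OD600 absorbance below the run mean of sample wells minus 3.6 SD, in any replicate, cut at about 0.56 in these data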;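 note: stock transfer was 300 nL into about 60 µL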
B2AR ag = beta2AR agonists driving receptor internalization, primary screen, cell-based, FAP fluorogen, flow cytometry; 340,000 compounds, 0.43% hits; Am2.2-beta2AR cells; reference of the scale not given here; response, % (test concentration not listed); Beta-2 adrenergic receptor (Homo sapiens), P07550;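 active = response above a set limit, near 3 SD of response in nonfluorescent compounds, cut at about 42% in these data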;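 note: stock transfer was 100 nL into about 11 µL; a reference agonist was the positive control; negative values mostly stem from fluorescent compounds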
Target sequence (P07550 whole entry, looked up): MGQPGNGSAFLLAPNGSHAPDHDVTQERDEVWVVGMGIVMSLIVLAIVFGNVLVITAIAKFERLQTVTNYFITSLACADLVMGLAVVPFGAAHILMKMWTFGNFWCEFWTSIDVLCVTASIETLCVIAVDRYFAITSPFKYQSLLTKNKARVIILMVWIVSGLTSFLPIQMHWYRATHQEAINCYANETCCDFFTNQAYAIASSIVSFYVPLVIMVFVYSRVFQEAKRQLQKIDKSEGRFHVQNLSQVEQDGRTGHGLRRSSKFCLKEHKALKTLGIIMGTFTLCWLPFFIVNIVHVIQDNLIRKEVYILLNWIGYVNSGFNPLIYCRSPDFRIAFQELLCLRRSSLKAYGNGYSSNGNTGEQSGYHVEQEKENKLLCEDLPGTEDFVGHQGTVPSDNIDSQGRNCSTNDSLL
Vif A3G = inhibitors of Vif binding to APOBEC3G peptide, primary screen, biochemical, TR-FRET, GST-Vif 1-94, biotin-A3G peptide, dose response retest (AID 1117319); Virion infectivity factor (Human immunodeficiency virus type 1 group M subtype B (isolate …; TR-FRET GST-Vif / biotin-A3G peptide binding; higher % means a stronger effect; test concentration not given here; strong numbers were not always called active; inhibition, %; hits with a dose series show IC50 in µM; 260,000 compounds, 0.57% hits;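 active = above the screen mean plus three standard deviations and confirmed in dose response; inconclusive = results disagree or hit not tested in dose response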;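 note: Vif residues 1-94 fused to GST binding biotinylated APOBEC3G peptide 110-148; 0% = full assay without inhibitor and 100% = GST in place of GST-Vif; retest series ran down from 100 µM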
Bfl-1 A1 inh = caspase 3/7 activation in MEF A1-2A-BIM cells, primary screen, A1 inhibitor project, cell-based, luminescence, HTS; Caspase-Glo 3/7 luminescence, 3 h; percent of clofoctol response, vehicle zero; caspase activation, % (test concentration not listed); 330,000 compounds, 0.066% hits;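 active = over half of replicate activation scores above 10%, or exactly half above 10 with the replicate mean above 10; inconclusive = replicate mean below 10 yet half the replicates above 10; inactive = over half of replicates below 10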;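 note: wells of about 30 µL received 50 nL stock; many hits fall short of the cut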
HNF4A DNA FP = change in binding of human HNF4A to DNA, primary screen, biochemical, fluorescence polarization, FITC-DNA; 360,000 compounds, 0.3% hits; Hepatocyte nuclear factor 4-alpha (Homo sapiens), P41235; 1 h; activity change, % at 10 µM; in the data active = activity change above about 30%, passing the limit was not always enough;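 note: controls were the assay level and a saturating level of protein; the project sought stronger binding though the title names inhibitors; some compounds called inactive have numbers as strong as hits; positive values seem to mean higher polarization but the record does not say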
Target sequence (P41235 whole entry, looked up): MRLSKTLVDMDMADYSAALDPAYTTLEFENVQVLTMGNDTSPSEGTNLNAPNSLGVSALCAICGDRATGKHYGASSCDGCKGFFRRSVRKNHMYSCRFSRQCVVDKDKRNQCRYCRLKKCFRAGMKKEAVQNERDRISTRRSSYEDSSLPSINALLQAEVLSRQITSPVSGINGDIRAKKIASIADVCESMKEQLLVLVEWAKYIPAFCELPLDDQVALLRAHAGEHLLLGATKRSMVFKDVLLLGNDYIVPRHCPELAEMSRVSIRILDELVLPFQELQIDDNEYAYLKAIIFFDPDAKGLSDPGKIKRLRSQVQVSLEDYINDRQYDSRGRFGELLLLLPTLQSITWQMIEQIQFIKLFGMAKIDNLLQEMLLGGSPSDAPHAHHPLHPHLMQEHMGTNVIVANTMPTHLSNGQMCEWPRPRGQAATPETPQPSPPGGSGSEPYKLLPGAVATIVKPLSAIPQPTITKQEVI
* hit, by the source's call; ? = inconclusive; · = not tested or not shown; & = joins results of further samples.

SMILES	LANA-H2A inh	UCH37 DUB inh	E coli growth	B2AR ag	Vif A3G	Bfl-1 A1 inh	HNF4A DNA FP
NC(=O)NC(=O)CC1S/C(=N/N=C2/NC(=O)CS2)NC1=O (stereo not drawn)	-2.4	1.5	0.71	5	4%	0.2	0.6
COC(=O)c1ccc(NC(=O)CN(C2CCCCC2)S(C)(=O)=O)cc1	-0.1	3.5	0.7	5	-8%	-1.0	2.0
CC(=O)c1cccc(NC(=O)COC(=O)c2n[nH]c3ccccc23)c1	0.2	-149	0.69	2	1%	0.2	-0.5
Cc1ccc(Nc2nc3ccccc3nc2Nc2c(C)n(C)n(-c3ccccc3)c2=O)cc1	3.2	-25	0.69	0	16%	0.0	0.3
O=C1CCCN1CCCNc1ncnc2c1[nH]c1ccc(Cl)cc12	-6.4	-6.3	0.7	5	1%	1.0	0.7
c1cc2c(cc1CN1CCN(C3CCCCCC3)CC1)OCO2	-1.2	1.0	0.66	7	-1%	0.4	-1.2
NC(=O)C1CC(=O)N(c2ccc(OCc3c(F)cccc3Cl)cc2)C1 (stereo not drawn)	1.9	3.5	0.69	3	-1%	-0.3	3.5
COc1ccccc1OCc1ccc(C(=O)NCC2CCCO2)cc1 (stereo not drawn)	-3.1	3.1	0.67	2	-8%	0.7	2.5
COCCn1cnnc1SCC(=O)Nc1ccccc1C(=O)Nc1ccc2c(c1)OCO2	1.9	5.9	0.72	2	5%&1%	-0.6	2.0
CC1CCC2(CC1)N=C(N)Nc1nc3ccccc3n12 (stereo not drawn)	-0.2	1.2	0.63	1	6%	0.2	3.1
CCOc1ccc(Nc2nc(Cc3nnc(SCC(=O)NC4CCCCC4)n3C)cs2)cc1	2.5	3.3	0.68	-8	3%	0.1	0.9
COc1ccc(NC(=O)COC(=O)/C=C/c2cccs2)c(OC)c1	4.1	2.9	0.72	-5	·	?	-4.8
FC(F)(F)c1nnc2c(Sc3ccccc3)nc3ccc(Cl)cc3n12	5.0	-85	0.73	36	-23%	0.0	2.9
CCOC(=O)c1c(NC(=O)CSc2nnc(-c3ccc(C)cc3)o2)sc(C(C)=O)c1C	-1.2	0.5	0.68	-8	-9%	0.3	-1.6
Cc1cc(C)c(C)c(C(=O)COC(=O)CNC(=O)CN2C(=O)c3ccccc3C2=O)c1C	1.1	-1.2	0.7	2	·	-0.7	-4.6
Nc1nnc(CCCCCc2nnc(N)s2)s1	-1.4	0.6	0.72	-12	-6%	1.5	-2.3
Cc1ccc(C(=O)Nc2ccccc2C(=O)NC(CC(=O)O)C(=O)O)cc1 (stereo not drawn)	-1.1	5.6	0.65	6	-1%	-1.0	-3.5
Cc1ccc(S(=O)(=O)NCCC(=O)OCC(=O)Nc2cccc(Cl)c2)cc1	0.7	5.5	0.69	-2	·	-0.6	-1.1
CN(C)c1ccc(/C=N/Nc2nc3ccccc3o2)cc1	-0.7	·	·	-13	1%	-8.7	-2.9
Cc1cccc2cc(C#N)c(N3CCOCC3)nc12	2.2	-14	0.67	9	·	-0.2	1.0
COc1cc(C=C2C(=O)c3ccccc3C2=O)cc(OC)c1OC	0.6	0.6	0.7	8	·	1.3	2.6
O=C(OCC(=O)N1CCc2ccccc21)[C@@H]1CC(O)CN1S(=O)(=O)c1ccccc1[N+](=O)[O-] (stereo partly drawn)	-6.5	-0.4	0.7	-14	·	0.3	-1.6
O=C(Nc1cccc([N+](=O)[O-])c1)c1ccc(CSc2ccccc2)cc1	0.5	4.9	0.71	-6	0%	-0.8	2.3
CC(=O)NC12CC3CC(C1)CC(C(=O)N(C)CC(=O)Nc1cccc(F)c1)(C3)C2	1.0	2.0	0.68	5	-5%	-0.1	3.3
Cc1cccc(N2CCN(CCNC(=O)c3cc4c(s3)CS(=O)(=O)C4)CC2)c1C	-1.3	2.3	0.7	-2	?	-0.2	-0.6
CCOc1ccccc1N1CCN(C(=O)NCc2ccc(Cl)cc2)CC1	1.2	1.4	0.66	7	·	-0.5	-2.8
CN(C)CCC(=O)C(Cc1ccccc1)c1ccccc1 (stereo not drawn)	5.1	-0.5	0.66	10	·	1.2	2.1
NC(=O)c1ccsc1NC(=O)CS(=O)(=O)c1ccc(F)cc1	-1.7	3.9	0.72	-2	-2%	0.5	0.6
CCOC(=O)c1c(C)c(C)n(Cc2ccc(OC)c(OC)c2)c1C	3.6	-0.6	0.72	-6	8%	0.7	-3.1
Cc1ccc(CNC(=O)C2CCN(S(=O)(=O)c3ccc(Br)s3)CC2)cc1	-4.7	0.2	0.68	-4	·	0.2	0.9
CC(C)(C)NC(=O)COC(=O)/C=C/c1ccc(F)cc1	·	5.7	0.7	0	·	0.4	-0.7
CN(CC(=O)Nc1ccccc1C(F)(F)F)C(=O)Cn1c(=O)oc2ccccc21	-3.1	0.0	0.7	-1	·	-0.3	4.1
CCc1ccc(C2=NN(CCC(=O)NCc3cccs3)C(=O)CC2)cc1	-2.5	3.9	0.68	-4	14%	-0.3	6.6
CCOc1ccccc1/C=N/NC(=O)c1nnn(-c2nonc2N)c1CN1CCCCCC1	-2.3	·	·	1	0%	-0.1	-5.5
CC1(C)Cc2nc3oc4c(=O)n(CC(=O)Nc5ccccc5)cnc4c3cc2CO1	-2.6	4.0	0.7	-21	·	0.0	5.7
CCC(CC)c1nnc(NC(=O)COc2ccc3c(C)cc(=O)oc3c2)s1	-1.5	-9.2	0.65	-2	0%	-0.1	0.1
CN1CCN(c2ccccc2NC(=O)c2ccc(N3CCCCC3)c([N+](=O)[O-])c2)CC1	-4.6	6.0	0.67	-15	10%	0.4	0.8
CC(C)(C)[C@@H]1COC(=O)[C@H](Cc2ccc(F)cc2)CC/C=C\C[C@@H](CC(=O)NCCO)C(=O)N1	·	-0.2	0.65	4	-1%	·	-0.7
COc1ccccc1Nc1ccc([N+](=O)[O-])cc1N	-0.3	3.7	0.69	3	4%	-0.6	4.5
CCc1ccc(C(=O)COC(=O)CNC(=O)CNS(=O)(=O)c2ccccc2)cc1	-5.0	-0.6	0.67	5	-4%	0.4	-0.6
CC1CCc2c(C(=O)NCc3ccco3)csc2C1 (stereo not drawn)	4.9	3.8	0.67	-8	2%	-1.1	6.5
CCOc1ccccc1NC(=O)C(OC(=O)c1cnccn1)c1ccccc1 (stereo not drawn)	-4.8	-0.2	0.7	-2	-2%	0.8	-3.1
CCOC(=O)c1c(NC(=O)CCN2C(=O)c3cccc([N+](=O)[O-])c3C2=O)sc(C(=O)OC(C)C)c1C	8.2	0.5	0.73	5	24%	-0.4	0.4
Cc1ccccc1SCC(=O)NCC(c1ccc(F)cc1)N1CCOCC1 (stereo not drawn)	1.5	3.0	0.72	-4	·	1.5	-1.0
N#C/C(=C\C=C\c1ccccc1[N+](=O)[O-])C(=O)NCc1ccccc1	7.7	-7.7	0.68	8	·	-0.3	9.3
CCOc1ncccc1C(=O)Nc1ccc(OC)c(S(=O)(=O)N2CCOCC2)c1	·	1.6	0.68	0	-1%	·	-1.6
COc1ccc2sc(C)nc2c1NC(C)=O	-5.2	0.1	0.74	-2	0%	-1.2	1.1
O=C1C=CC(=Nc2cccc3c2C(=O)c2ccccc2-3)O1	·	10	0.67	7	4%	·	-24
Cc1ccc(C(=O)NS(=O)(=O)c2ccccc2)cc1	7.8	4.7	0.66	-2	0%	0.6	3.7
COc1ccc(C(=O)NC(=S)NCc2cccnc2)cc1Br	1.0	1.6	0.67	-8	0%	-0.1	-1.1
Later entries:
SMILES	LANA-H2A inh	UCH37 DUB inh	E coli growth	B2AR ag	Vif A3G	Bfl-1 A1 inh	HNF4A DNA FP
COCCSc1nnc(NC(=O)c2cc(OC)c(OC)cc2[N+](=O)[O-])s1	-3.6	8.4	0.64	-2	-3%	-0.2	-0.6
Nc1ncnc2c1C(c1ccccc1)c1c(ccc3ccccc13)O2 (stereo not drawn)	6.0	2.3	0.68	7	·	2.4	-11
O=S1(=O)[C@H]2C[C@@H]3C=C[C@@]2(CN1Cc1ccc(Cl)cc1)O3	3.1	1.3	·	-4	·	-0.6	-0.9
O=C1CCSc2c1ccc1ccccc21	·	·	·	-2	-1%	·	-0.2
COc1ccc(S(=O)(=O)N2CCC(C(=O)N3CCN(C)CC3)CC2)cc1Cl	-3.6	0.3	0.69	3	·	0.9	1.1
CC1NC(=S)N(C2CCCCC2)C1=O (stereo not drawn)	-1.8	6.4	0.67	-2	-3%	0.6	2.9
CCCCN(C(=O)c1ccc(S(=O)(=O)N2CCCC2)cc1)C1CCS(=O)(=O)C1 (stereo not drawn)	2.9	1.5	0.58	0	7%	0.6	-0.2
C=CCn1c(CCNC(=O)c2cccs2)nnc1SCC(=O)c1ccc(Cl)cc1	·	1.4	0.66	90*	2%	·	2.2
CCOC(=O)/C=C(C)\C=C\c1c[nH]c2ccccc12	1.0	1.6	0.64	10	·	-0.1	0.4
CC1(C)CC2(CCO1)N1CC3(C)CN2CC(C)(C1)C3=O (stereo not drawn)	2.7	5.2	0.71	0	-1%	-0.1	0.4
Cc1ccc(-n2c(O)c(/C=N/Nc3ccc(S(=O)(=O)N4CCOCC4)cc3[N+](=O)[O-])c3ccccc3c2=O)c(C)c1	0.9	11	0.68	12	·	-0.4	-1.3
COc1ccc(S(=O)(=O)N(C)CC(=O)Nc2ccccc2SC)cc1Cl	-0.3	2.8	0.74	19	-4%	0.4	2.2
Cc1cc2nn(-c3ccccc3)nc2cc1NC(=O)c1cccs1	-2.1	-0.2	0.7	-5	5%	0.7	-0.8
CCS(=O)(=O)c1ccc2oc(SCC(=O)NCc3ccccc3)nc2c1	-1.0	2.8	0.68	1	13%	0.6	-2.4
Cc1[nH]c2ccccc2c1C(=O)CN1C(=O)NC2(CCCCCC2)C1=O	-2.2	-1.6	0.71	-2	-5%	-0.7	0.1
O=S(=O)(c1ccc(N2CCN(S(=O)(=O)c3ccccc3)CC2)nc1)N1CCCC1	0.6	-0.8	0.7	-2	·	0.0	-1.3
Cc1ccc2c(CN3CCN(S(=O)(=O)/C=C/c4ccccc4)CC3)cc(=O)oc2c1	-3.7	·	·	-6	?	0.9	-0.1
O=C(O)CN1C(=O)/C(=C\c2ccc(OC(=O)c3ccco3)cc2)SC1=S	-11	17	0.65	2	·	-1.7	73*
O=C(c1ccc(Cl)cc1Cl)N1CCC(C(=O)N2CCOCC2)CC1	0.0	-0.9	0.65	4	·	-0.1	0.0
COc1cccc(OCc2nnc(SCC(=O)NNC(=O)C3CCCCC3)n2C)c1	-0.8	0.2	0.69	-11	-5%	0.2	-4.7
CCn1ccc(C(=O)Nc2cccc(Cl)c2)n1	1.6	-2.1	0.68	2	-7%	-2.8	-0.9
COc1ccccc1C1CC(=O)Nc2c1c(=O)n(C)c(=O)n2C (stereo not drawn)	7.4	3.6	0.69	5	70µM*	1.4	1.5

Some entries already given with just Bfl-1 A1 inh and UCH37 DUB inh.
| SMILES | Bfl-1 A1 inh | UCH37 DUB inh |
| --- | --- | --- |
| COc1cccc(OCc2nnc(SCC(=O)NNC(=O)C3CCCCC3)n2C)c1 | 0.2 | 0.2 |
| CCn1ccc(C(=O)Nc2cccc(Cl)c2)n1 | -2.8 | -2.1 |
| COc1ccccc1C1CC(=O)Nc2c1c(=O)n(C)c(=O)n2C (stereo not drawn) | 1.4 | 3.6 |
